LANA-H2B inh: blockers of LANA interaction with H2A/H2B – biochemical, FP readout, HTS, primary screen; Protein LANA1 (Human herpesvirus 8 type P (isolate GK18)), Q9QR71; cell-free LANA-H2A/H2B peptide, fluorescence polarization; inhibition, % (test concentration not listed); 320,000 tested, 0.6% active; in the data active = inhibition mostly above about 10%, no sharp cut-off; inactive = mostly below about 6.7%;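 note: stock transfer was 7.5 nL into about 10 µL; 0% = median of vehicle wells and 100% = median of positive control wells; one replicate is shown; the record names a cut of 25% in any replicate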
Target sequence (Q9QR71 whole entry, looked up): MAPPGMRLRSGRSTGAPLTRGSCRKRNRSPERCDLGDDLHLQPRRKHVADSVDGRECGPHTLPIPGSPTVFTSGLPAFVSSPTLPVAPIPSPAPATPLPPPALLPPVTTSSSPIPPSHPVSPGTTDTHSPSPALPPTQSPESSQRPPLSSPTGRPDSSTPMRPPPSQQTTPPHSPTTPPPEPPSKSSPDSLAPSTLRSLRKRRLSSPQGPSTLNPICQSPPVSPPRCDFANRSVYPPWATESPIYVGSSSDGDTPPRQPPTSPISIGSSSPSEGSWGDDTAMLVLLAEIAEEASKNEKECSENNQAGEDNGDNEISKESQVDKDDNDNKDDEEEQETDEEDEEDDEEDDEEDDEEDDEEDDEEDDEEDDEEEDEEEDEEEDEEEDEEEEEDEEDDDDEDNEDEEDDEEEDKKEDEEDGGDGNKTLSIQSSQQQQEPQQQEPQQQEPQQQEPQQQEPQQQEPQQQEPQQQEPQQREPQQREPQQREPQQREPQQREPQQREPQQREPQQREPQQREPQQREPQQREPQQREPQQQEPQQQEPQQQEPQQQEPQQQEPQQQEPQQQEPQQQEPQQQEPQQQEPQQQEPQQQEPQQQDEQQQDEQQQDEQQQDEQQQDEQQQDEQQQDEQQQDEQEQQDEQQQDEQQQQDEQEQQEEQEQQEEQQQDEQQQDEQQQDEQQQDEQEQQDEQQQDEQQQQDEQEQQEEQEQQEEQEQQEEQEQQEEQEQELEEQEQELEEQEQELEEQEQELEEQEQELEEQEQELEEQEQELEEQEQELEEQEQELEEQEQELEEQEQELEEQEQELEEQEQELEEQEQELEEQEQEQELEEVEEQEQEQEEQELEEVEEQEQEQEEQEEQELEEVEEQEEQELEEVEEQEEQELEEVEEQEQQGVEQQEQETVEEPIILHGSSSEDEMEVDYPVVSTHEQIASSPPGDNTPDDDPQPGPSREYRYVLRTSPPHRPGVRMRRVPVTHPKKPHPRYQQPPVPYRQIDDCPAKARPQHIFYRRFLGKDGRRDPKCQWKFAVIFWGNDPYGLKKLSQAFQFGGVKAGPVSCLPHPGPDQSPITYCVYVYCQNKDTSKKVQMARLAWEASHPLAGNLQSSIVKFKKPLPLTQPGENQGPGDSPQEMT
HNF4A DNA FP: change in binding of human HNF4A to DNA, primary screen, biochemical, fluorescence polarization, FITC-DNA; 1 h; activity change, % at 10 µM; 360,000 tested, 0.3% active; in the data active = activity change above about 30%, passing the limit was not always enough;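 note: controls were the assay level and a saturating level of protein; the project sought stronger binding though the title names inhibitors; some compounds called inactive have numbers as strong as hits; positive values seem to mean higher polarization but the record does not say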
Bfl-1 A1 inh: caspase 3/7 activation in MEF A1-2A-BIM cells, primary screen, A1 inhibitor project, cell-based, luminescence, HTS; caspase activation, % (concentration not given with the values); Caspase-Glo 3/7 luminescence, 3 h; percent of clofoctol response, vehicle zero; 330,000 tested, 0.066% active;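 active = over half of replicate activation scores above 10%, or exactly half above 10 with the replicate mean above 10; inconclusive = replicate mean below 10 yet half the replicates above 10; inactive = over half of replicates below 10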;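 note: wells of about 30 µL received 50 nL stock; many hits fall short of the cut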
B2AR ag: beta2AR agonists driving receptor internalization, primary screen, cell-based, FAP fluorogen, flow cytometry; AID 504454, 2011; Am2.2-beta2AR cells; reference of the scale not given here; response, % (concentration not given with the values); 340,000 tested, 0.43% active; Beta-2 adrenergic receptor (Homo sapiens), P07550;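 active = response above a set limit, near 3 SD of response in nonfluorescent compounds, cut at about 42% in these data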;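 note: stock transfer was 100 nL into about 11 µL; a reference agonist was the positive control; negative values mostly stem from fluorescent compounds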
Ecoli growth: E. coli growth inhibition, primary screen, OD600; Escherichia coli growth, 23 h; hits give low values; 330,000 tested, 0.21% active; OD600 absorbance (test concentration not listed); AID 1053175, 2014;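 active = OD600 absorbance below the run mean of sample wells minus 3.6 SD, in any replicate, cut at about 0.56 in these data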;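 note: stock transfer was 300 nL into about 60 µL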
UCH37 DUB inh: inhibitors of human UCH37 deubiquitinase, primary screen, biochemical, Ub-AMC cleavage, fluorescence. Ubiquitin carboxyl-terminal hydrolase isozyme L5 (Homo sapiens), Q9Y5K5. purified proteasome/UCH37. inhibition, % (test concentration not listed). 330,000 tested, 0.33% active. AID 588478, 2011;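 active = mean of two replicates above 20%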;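 note: 0% = compound-free wells with enzyme and 100% = wells lacking proteasome; stock transfer was 100 nL into about 20 µL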
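Material: human UCH37 enzyme supplied as purified proteasome complex. Measure: % inhibition of Ub-AMC cleavage fluorescence. Medium: pH 7.4 Tris-HCl (50 mM) with ovalbumin, ATP-MgCl2, DTT. Times: 30 min preincubation with enzyme, 25 min cleavage at room temperature. Detection: AMC fluorescence intensity at 355/460 nm.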
Vif A3G: inhibitors of Vif binding to APOBEC3G peptide, primary screen, biochemical, TR-FRET, GST-Vif 1-94, biotin-A3G peptide, dose response retest (AID 1117319) | Virion infectivity factor (Human immunodeficiency virus type 1 group M subtype B (isolate … | TR-FRET GST-Vif / biotin-A3G peptide binding; higher % means a stronger effect; test concentration not given here; strong numbers were not always called active | inhibition, %, or IC50 in µM where a hit was titrated | 260,000 tested, 0.57% active;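 active = above the screen mean plus three standard deviations and confirmed in dose response; inconclusive = results disagree or hit not tested in dose response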;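 note: Vif residues 1-94 fused to GST binding biotinylated APOBEC3G peptide 110-148; 0% = full assay without inhibitor and 100% = GST in place of GST-Vif; retest series ran down from 100 µM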
* = called active by the depositor; ? = inconclusive; . = no result given; & = joins results of further samples.

SMILES	LANA-H2B inh	HNF4A DNA FP	Bfl-1 A1 inh	B2AR ag	Ecoli growth	UCH37 DUB inh	Vif A3G
O=c1[nH]c(SCc2nc3ccccc3c(=O)n2-c2ccccc2)nc2ccccc12	-0.1	-0.8	0.0	-8	0.7	1.4	.
O=C(NC(c1ccccc1)c1ccccc1)C1CCCN(S(=O)(=O)c2cnc[nH]2)C1 (stereo not given)	-0.4	1.3	0.3	-2	0.75	6.4	0%
COc1cc([N+](=O)[O-])ccc1NC(=O)CN1C(=O)NC2(CCCCC2C)C1=O (stereo not given)	.	1.5	.	-3	0.7	4.4	.
CC1CCN(C(=O)CN2c3cccc4cccc(c34)S2(=O)=O)CC1	1.2	9.5	0.9	5	0.7	-68	-5%
CC1CCCC(NC(=O)CCCn2ncn3c(cc4occc43)c2=O)C1C (stereo not given)	1.8	4.8	0.8	-10	0.67	2.3	2%
COc1ccc(CN2CCCC(CO)(Cc3ccc(F)cc3)C2)c(OC)c1OC (stereo not given)	3.1	-0.5	0.6	4	0.68	5.6	.
CCCc1ccc(Oc2cn[nH]c2-c2ccc(O)cc2O)cc1	-6.3	-3.4	-0.5	2	0.58	5.2	12%
CN1CCN(Cc2nc3c(c(=O)[nH]c(=O)n3C)n2Cc2c(F)cccc2Cl)CC1	-11	-2.0	-0.2	-7	0.72	2.1	.
CC(=O)OC1CCC2(C)C(CCC3C2CC(OC(C)=O)C2(C)C3C[C@@H]3O[C@]4(CC[C@@H](C)CO4)[C@@H](C)C32)C1 (stereo not given in full)	-1.5	.	0.5	.	0.67	0.3	.
CCCc1nc2ccc(NC(=O)c3cccs3)cc2c(=O)n1Cc1ccc(Cl)cc1	3.0	1.1	0.3	6	0.73	-4.6	9%
CCn1[nH]c(=O)c(=Nc2c(C)n(C)n(-c3ccccc3)c2=O)cc1-c1ccc(Cl)cc1	-0.3	1.0	0.8	9	0.67	2.5	?
Cc1cc2ncn(CCC(=O)NC(C)(C)C)c2cc1C	-4.9	-2.5	-0.8	4	0.68	0.0	-3%
CC(=O)Oc1ccc(C)cc1-n1nc2ccccc2n1	-1.7	-5.4	-8.7	-1	0.69	0.7	0%
O=C(ONC1=NCCCCC1)c1ccc([N+](=O)[O-])cc1	1.8	2.6	0.7	6	0.64	3.6	.
CC(=O)Nc1ccc(-c2cc(C(=O)O)c3ccccc3n2)cc1	2.5	-2.6	0.9	19	0.66	-125	2%
O=C(CCNS(=O)(=O)c1ccccc1C(F)(F)F)NNC(=O)c1csc(N2CCOCC2)n1	6.5	-2.0	1.4	-7	0.63	-4.8	-3%
CCOc1ccc(NC(=O)c2nn(C)cc2Br)cc1	2.6	1.1	-7.7	-20	0.64	1.4	27%
Cc1cc(=O)[nH]c(SCC2COC3(CCCCC3)O2)n1 (stereo not given)	-0.6	1.7	-1.0	-3	0.68	3.3	?
Cc1ccc(NCN2C(=O)c3ccccc3C2=O)c(C)c1	-1.0	1.2	0.1	-3	0.72	1.2	4%
O=C1c2ccccc2C(O)(c2ccccc2)N1c1ccncc1 (stereo not given)	1.8	-1.7	-0.1	-8	0.69	5.1	17%
N#CC1=C(N)NC(SCc2ccccc2)=C(C#N)C12CCCC2	-6.6	8.0	-0.9	5	0.68	21*	.
COc1ccc(C=O)cc1OS(=O)(=O)c1ccccc1[N+](=O)[O-]	0.2	-0.6	-1.1	-29	0.7	3.5	7%
COc1ccccc1C(=O)N1CCc2ccccc21	0.2	-2.0	-0.9	4	0.75	0.5	-2%
CC1=NN(C(N)=S)C(=O)C1N=Nc1ccc(S(N)(=O)=O)cc1 (stereo not given)	1.2	5.6	-2.8	-11	0.65	12	.
COc1cc(-c2nnc(SCc3cc(=O)oc4cc(C)ccc34)o2)cc(OC)c1OC	1.0	1.6	-0.4	-11	0.68	1.9	1%

One compound at a time, from the list above. Order of values: LANA-H2B inh	HNF4A DNA FP	Bfl-1 A1 inh	B2AR ag	Ecoli growth	UCH37 DUB inh	Vif A3G
CC(=O)Nc1ccc(-c2cc(C(=O)O)c3ccccc3n2)cc1 is listed as 2.5	-2.6	0.9	19	0.66	-125	2%
N#CC1=C(N)NC(SCc2ccccc2)=C(C#N)C12CCCC2 is listed as -6.6	8.0	-0.9	5	0.68	21*	.

Next part:
SMILES	LANA-H2B inh	HNF4A DNA FP	Bfl-1 A1 inh	B2AR ag	Ecoli growth	UCH37 DUB inh	Vif A3G
NC(=O)CC(NC(=O)c1ccccc1)c1ccc(N2CCN(c3ccc(F)cc3)CC2)c([N+](=O)[O-])c1 (stereo not given)	2.3	-2.8	0.5	3	0.69	5.6	.
COc1ccc(C2C(C(=O)N3CCOCC3)CCC(=O)N2c2ccc(OC)cc2)cc1 (stereo not given)	3.0	-0.7	-1.6	0	0.71	1.5	-3%
O=C(Nc1ccc(F)cc1)C1CCCN(c2cnccn2)C1 (stereo not given)	.	-3.2	.	5	0.69	-16	.
Cc1cccc(CSCc2ccc(C(=O)NCC3CCCO3)o2)c1 (stereo not given)	-1.8	-1.1	0.7	-4	0.71	3.9	.
Cc1ccc(CNC(=O)C2CCCN(S(=O)(=O)N3CCC(C)CC3)C2)cc1 (stereo not given)	1.2	1.4	-0.9	2	0.65	2.1	1%
CCCCCCCCC(=O)N/N=C/c1cccc(Br)c1	10.0	0.3	0.0	6	.	.	10%
O=C(CSc1nc2c(sc3ccccc32)c(=O)n1Cc1ccccc1)NCC1CCCO1 (stereo not given)	-3.0	-0.3	0.4	3	0.73	-4.0	-2%
CC1CCCCN1CC(=O)c1c(N)n(Cc2ccccc2)c(=O)n(C)c1=O (stereo not given)	5.6	3.4	1.1	0	0.73	0.7	.
COc1ccc(-c2nc(C#N)c(N3CCCCCC3)o2)cc1	0.9	3.8	-0.1	0	0.67	-127	-2%
CCN(CC)c1nc(C)c(C(C)=O)cc1C#N	2.6	-0.4	-0.6	-15	0.72	11	5%
COc1ccc(NC(=S)Nc2cc(S(=O)(=O)N3CCCCC3)ccc2OC)cc1	5.2	.	0.1	.	0.71	4.4	1%
Cn1c(Cc2cccs2)nnc1SCC(=O)Nc1ccccc1F	0.8	0.1	1.1	-15	0.71	4.7	2%
CC(C)N(C(=O)COC(=O)c1cccc(C(=O)OCC(=O)N(C(C)C)C(C)C)n1)C(C)C	2.2	1.2	0.9	0	0.67	1.2	-1%
COc1cccc(C(=O)NCC(=O)OC(C)C(=O)NC23CC4CC(CC(C4)C2)C3)c1 (stereo not given)	1.9	-4.0	-0.2	0	0.68	0.2	-2%
O=C1C(=Cc2cccn2-c2ccc(O)cc2)C(=O)c2ccccc21	1.4	-20	0.5	-6	0.76	6.5	8%
CC(/C=C/c1ccc2c(c1)OCO2)=N\NC(=O)c1ccccc1	-1.1	-0.2	-1.5	6	.	.	1%
Cc1ccc(C)c(N2CCN(C(=O)Cc3ccc(NC4=NC5CS(=O)(=O)CC5S4)cc3)CC2)c1 (stereo not given)	-0.3	-1.7	.	0	0.78	3.1	.
CCCN1CCN(CCCNC(=O)c2ccc3c(Cl)c4c(nc3c2)CCCC4)CC1	1.8	6.7	0.5	21	0.69	3.2	.
COC(=O)Cn1cnc2c(oc3ccccc32)c1=O	-0.3	0.1	-1.7	3	0.69	-0.6	.
O=c1[nH]c2c(c(=O)[nH]1)OCN(Cc1ccccc1)C2	.	4.2	.	6	.	.	-6%
COC(=O)c1c(NC(=O)c2ccc(Br)o2)sc(C)c1C	4.3	0.7	0.1	2	0.68	-24	5%
Oc1ccc(C(c2nnnn2C2CCCCC2)N2CCOCC2)cc1 (stereo not given)	2.3	-7.1	1.1	-2	0.63	1.1	6%
Cc1nn(C(=O)Cn2cc([N+](=O)[O-])cn2)c(C)c1Cl	2.8	-0.2	0.2	3	0.71	2.9	-10%
CC(=O)c1cccc(S(=O)(=O)NCCC(=O)NC2CCCCCC2)c1	0.1	1.9	0.2	-5	0.69	2.5	.
CCOC(=O)c1ccc(NC(=O)c2nc[nH]c2C(=O)NCCCCCNC(=O)OC(C)(C)C)cc1	-3.7	2.0	0.1	2	0.83	2.3	16%
The listing continues.
SMILES	LANA-H2B inh	HNF4A DNA FP	Bfl-1 A1 inh	B2AR ag	Ecoli growth	UCH37 DUB inh	Vif A3G
COc1cc(NC(=O)c2ccc(C)cc2)c(OC)cc1NC(=O)CN1CCCCC1	-2.4	0.0	-0.3	5	0.67	2.0	25%
COc1cccc(NC(=O)CN2CCC(C)CC2)c1	2.1	1.9	1.4	-2	0.69	2.6	-8%
CCN(CC)CCn1c2ccc(F)cc2c2nc(C)sc21	-3.7	-4.7	-1.4	3	0.67	5.5	5%
Cc1ccc(/C=N/NC(=O)c2nnn(-c3nonc3N)c2CN(C)C)o1	3.5	3.7	-0.9	-31	.	.	.
O=C(OCC(=O)N(CCc1ccccc1)Cc1ccccc1)c1ccc(F)c(S(=O)(=O)N2CCOCC2)c1	.	-5.8	.	4	0.72	5.8	.
CCOc1ccccc1NC(=O)CCS(=O)(=O)c1ccc2c(c1)CC(C)N2C(C)=O (stereo not given)	-1.1	-0.9	-2.1	4	0.71	2.2	.
Cc1ccc(NC(=O)c2ccco2)c(NC(=O)c2ccc(Cl)cc2)c1	-5.4	2.1	-0.5	-2	0.65	-0.1	.
O=C(c1cc2c(=O)n3ccccc3nc2s1)N1CCN(c2cccc(Cl)c2)CC1	1.9	1.9	-0.2	1	0.67	-35	.
CSCC(O)Cn1[nH]c(=O)c2cc(Cl)c(Cl)cc2c1=O (stereo not given)	16*	-1.4	-0.3	5	0.59	4.6	1%
CCOC(=O)N1CCN(C(=O)C2CCCN(S(=O)(=O)c3ccccc3)C2)CC1 (stereo not given)	0.6	0.1	0.0	-7	0.73	2.0	5%
O=C(CSc1nnc(-c2ccccc2Cl)n1Cc1ccco1)Nc1ccc2c(c1)OCCO2	-3.0	1.6	0.7	1	0.76	1.6	-4%&-8%
O=C(COC(=O)CC1c2ccccc2CCN1S(=O)(=O)c1ccccc1)Nc1ccccc1 (stereo not given)	2.0	2.5	-0.5	1	0.69	5.5	.
CCOc1ccc(Nc2nc(N)c([N+](=O)[O-])c(N3CCOCC3)n2)cc1	0.5	-2.5	1.4	10	0.68	4.6	1%
O=S(=O)(/N=C(/Nc1cccc2ccccc12)c1ccc(F)cc1)c1ccccc1	-6.1	-0.9	-0.9	-3	0.63	0.8	.
Cc1ccc(C(C(=O)NCC2CCCO2)N(C(=O)c2snc(C(N)=O)c2N)c2ccc3c(c2)OCCO3)cc1 (stereo not given)	-6.7	-0.9	0.3	-10	0.66	-8.5	.
O=C(CSc1nc2ccccc2c(=O)n1CCCN1CCOCC1)Nc1ccc2c(c1)OCO2	-3.6	-1.3	0.2	-20	0.71	5.2	2%
O=C(c1ccc(F)cc1)N1CCCC(c2nc(-c3cccs3)no2)C1 (stereo not given)	-1.9	4.0	-1.1	-16	0.67	-0.4	-14%
O=C1CCCN1CCCNCC(O)c1ccccc1 (stereo not given)	-3.7	4.7	0.1	-4	0.65	2.2	-11%
O=C(Nc1ccc2c(c1)OCO2)N1CCN(c2ncc(C(F)(F)F)cc2Cl)CC1	-4.6	-1.3	1.1	0	0.69	0.0	3%
Cc1nc(NC(=O)c2ccc(F)cc2)nc2cc3c(cc12)OCO3	2.6	-3.2	0.0	-6	0.67	-38	-22%
O=C(Nc1ccccc1F)C(=O)c1cn(CC(=O)N2CCCCC2)c2ccccc12	2.4	1.0	-1.1	-4	0.73	6.2	-10%
